Bioassay records (PubChem BioAssay)
YB-1 expr inh – YB-1 expression inhibition. U2OS, qRT-PCR YB-1 vs CDIP delta delta Cp, 16 h; active compounds read high; zero = DMSO, each unit about twofold. delta delta Cp (YB-1 minus CDIP) (test concentration not listed). 30,000 compounds, 0.37% hits. AID 434959;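 active means delta delta Cp rounded down to an integer at or above 3, about 3 SD of DMSO wells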;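 further: higher means less YB-1 transcript or more CDIP transcript relative to DMSO; stock transfer was 100 nL into about 100 µL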
Shh pathway inh – Sonic Hedgehog pathway inhibition; 22,000 compounds, 2.1% hits; AID 2313; Shh-LIGHT2 Gli-luciferase reporter, 30 h; inhibition, % (test concentration not listed);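 active means replicate mean of 65% or more; inconclusive means mean lower but half the replicates past it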;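 further: pathway switched on by Shh-conditioned medium diluted 1 in 25 in low serum; 100 nL library stock added to about 40 µL; 0% = median of neutral wells and 100% = positive control level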
PD-1 reversal – reversal of PD-1 mediated T-cell inhibition | primary human CD4 T cells, PD-L1 beads, CellTiter-Glo 96 h | activation, % (concentration not given with the values) | 29,000 tested, under 10 active;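 active means replicate mean of 50% or more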;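 further: 0% = median vehicle wells and 100% = positive control; 100 nL library stock added to about 50 µL; numbers are from one replicate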
MITF inh – MITF inhibition; TRPM1 promoter luciferase, luminescence, 24 h; inhibition, % (concentration not given with the values); 37,000 compounds, 0.28% hits;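 active means most replicates at 85% or more, or half of them and the mean; inconclusive means half reach 85% but not the mean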;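 further: human melanocyte line stably carrying TRPM1 promoter luciferase reporter; 0% = vehicle wells and 100% = a positive control; the first replicate is given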
* marks the source's active call; other numbers are inactive results; ? = inconclusive; / = not tested or not shown.

Sample of the layout:
SMILES	YB-1 expr inh	Shh pathway inh	PD-1 reversal	MITF inh
COc1ccc(S(=O)(=O)Nc2ccc3c(c2)C(=O)N([C@H](C)CO)C[C@@H](C)[C@@H](CN(C)Cc2ccc(C(=O)O)cc2)O3)cc1	-0.33	1	1.8	-3
O=C(O)c1ccccc1C(=O)c1ccc(-c2ccccc2)cc1	-0.23	5	-0.2	-86
C[C@H]1CN([C@@H](C)CO)C(=O)c2cc(NS(C)(=O)=O)ccc2O[C@H]1CN(C)S(=O)(=O)c1cn(C)cn1	0.22	1	-1.3	13

Results, previewed entries included:
SMILES	YB-1 expr inh	Shh pathway inh	PD-1 reversal	MITF inh
COc1ccc(S(=O)(=O)Nc2ccc3c(c2)C(=O)N([C@H](C)CO)C[C@@H](C)[C@@H](CN(C)Cc2ccc(C(=O)O)cc2)O3)cc1	-0.33	1	1.8	-3
O=C(O)c1ccccc1C(=O)c1ccc(-c2ccccc2)cc1	-0.23	5	-0.2	-86
C[C@H]1CN([C@@H](C)CO)C(=O)c2cc(NS(C)(=O)=O)ccc2O[C@H]1CN(C)S(=O)(=O)c1cn(C)cn1	0.22	1	-1.3	13
Cc1cc(C)c2nc(-c3cccnc3)cc(C(=O)NC(C)c3cnn(C)c3C)c2c1 (stereo not drawn)	/	/	-0.5	-26
C[C@H](CO)N1C[C@H](C)[C@H](CN(C)Cc2ccc(C(F)(F)F)cc2)Oc2ccc(NC(=O)Nc3ccc(C(F)(F)F)cc3)cc2CC1=O	0.05	-3	-2.4	17
C[C@H]1CN([C@@H](C)CO)C(=O)c2cccc(NS(=O)(=O)c3ccccc3)c2O[C@@H]1CN(C)Cc1ccncc1	0.39	15	-0.7	2
COc1ccc(NC(=O)Nc2cccc3c2O[C@@H](CN(C)C(=O)NC(C)C)[C@H](C)CN([C@H](C)CO)C3=O)cc1	0.011	0	0.2	2
C/C=C(\C)C(=O)O[C@@H]1C(C)=C2[C@H]3OC(=O)[C@](C)(O)[C@]3(O)[C@H](OC(=O)C(C)CC)C[C@@](C)(OC(C)=O)[C@@H]2[C@H]1OC(=O)CCCCCCC (stereo partly drawn)	-0.85	99*	/	/
Clc1ccc(-c2cnc3n2CCC3)cc1Cl	-0.22	/	0.3	28
COc1ccc(-n2c(SCC(=O)Nc3ccc(C)cc3)nc3sc4c(c3c2=O)CCCC4)cc1	/	/	0.6	8
CC1(C)O[C@@H]2[C@H](O1)[C@@H](CO)O[C@H]2n1cnc2c(N)ncnc21	-0.36	/	-0.3	-4
C[C@H](CO)N1C[C@H](C)[C@@H](CN(C)C(=O)Nc2ccc3c(c2)OCO3)Oc2c(NC(=O)c3ccncc3)cccc2C1=O	0.012	22	1.9	-7
CNC[C@H]1Oc2ccc(NS(=O)(=O)c3cn(C)cn3)cc2CC(=O)N([C@@H](C)CO)C[C@@H]1C	-0.18	-15	/	-6
Cc1noc(C)c1NC(=O)Nc1ccc2c(c1)C(=O)N([C@H](C)CO)C[C@H](C)[C@H](CN(C)CC1CC1)OCCCC[C@@H](C)O2	0.19	-4	/	-2
C[C@H]1CN([C@@H](C)CO)C(=O)Cc2cc(NS(=O)(=O)c3ccc(F)cc3)ccc2O[C@H]1CN(C)S(=O)(=O)c1cn(C)cn1	0.22	-8	/	-22
C[C@@H]1CCCCO[C@H](CN(C)C(=O)CCC(F)(F)F)[C@@H](C)CN([C@H](C)CO)C(=O)c2cc(NS(=O)(=O)c3cccs3)ccc2O1	-0.11	3	0.9	-14
COc1ccccc1CN1CCN(Cc2cccnc2)CC1	/	/	1.6	-19
C[C@@H]1CN([C@@H](C)CO)C(=O)c2cccc(NC(=O)c3nc4ccccc4s3)c2O[C@@H]1CN(C)S(=O)(=O)c1ccc(Cl)cc1	0.083	20	-2.2	60
Cc1noc(C)c1NC(=O)N(C)C[C@@H]1Oc2ccc(NC(=O)CCN3CCOCC3)cc2CC(=O)N([C@H](C)CO)C[C@H]1C	0.14	-8	1.5	1
C[C@H]1CN([C@@H](C)CO)C(=O)c2cccc(NS(=O)(=O)c3ccc(F)cc3)c2O[C@H]1CN(C)Cc1ccncc1	-0.11	16	-1.5	-8
C[C@H](CO)N1C[C@H](C)[C@H](CN(C)C(=O)NC2CCCCC2)Oc2ccc(NS(=O)(=O)c3cn(C)cn3)cc2C1=O	0.13	-23	1.0	-6
O=C(CC1(O)C(=O)N(Cc2ccc(Cl)cc2)c2ccc(Cl)cc21)c1ccco1 (stereo not drawn)	/	/	2.1	25
C=C1C(=O)O[C@@H]2/C=C(/CO)CC/C=C(/C)C[C@H](OC(=O)C(C)CO)[C@@H]12 (stereo partly drawn)	-0.18	11	-1.5	6
C[C@@H]1CN([C@H](C)CO)C(=O)Cc2cc(NC(=O)Nc3ccc(F)cc3)ccc2O[C@@H]1CN(C)C(=O)Nc1ccc(C(F)(F)F)cc1	-0.41	3	-3.5	3
CCOC(=O)c1c(-c2ccc(C)cc2)csc1NC(=O)C1COc2ccccc2O1 (stereo not drawn)	/	/	-0.9	6
C[C@@H]1CN([C@@H](C)CO)C(=O)c2cccc(NC(=O)c3ccc(-c4nccs4)cc3)c2O[C@H]1CN(C)C(=O)NC1CCCCC1	-0.13	5	/	5
COC(=O)c1ccc(Cl)c(NC(=O)CN2CCN(Cc3ccccc3)CC2)c1	/	/	-1.8	-2
Cc1noc(C)c1S(=O)(=O)Nc1ccc2c(c1)CC(=O)N([C@@H](C)CO)C[C@H](C)[C@H](CN(C)S(C)(=O)=O)O2	0.11	23	0.5	-4
Cc1noc(C)c1S(=O)(=O)Nc1cccc2c1O[C@H](CN(C)Cc1ccc3c(c1)OCO3)[C@H](C)CN([C@@H](C)CO)C2=O	-0.055	-1	1.2	-14
O=C(O)c1ccc(NS(=O)(=O)c2cc3c4c(cccc4c2)C(=O)NC3=O)cc1	0.41	23	0.1	24
CC(C)NC(=O)Nc1ccc2c(c1)C(=O)N([C@H](C)CO)C[C@@H](C)[C@H](CN(C)S(=O)(=O)c1ccc(F)cc1)O2	-0.23	6	0.0	-2
O=c1c2ccccc2cnn1Cc1n[nH]c(=S)n1-c1ccc(F)c(Cl)c1	/	/	-0.4	17
COc1ccc(CN(C)C[C@H]2Oc3ccc(NC(=O)NC(C)C)cc3C(=O)N([C@@H](C)CO)C[C@H]2C)cc1	0.34	-5	1.1	-1
O=C(c1ccccc1NS(=O)(=O)c1cccc([N+](=O)[O-])c1)N1CCOCC1	/	/	2.0	2
C[C@H](CO)N1C[C@H](C)[C@H](CN(C)S(=O)(=O)c2cccs2)Oc2ccc(NC(=O)CCC(F)(F)F)cc2C1=O	-0.041	/	-1.6	-9
C[C@@H]1CN([C@H](C)CO)C(=O)c2cccc(N(C)C)c2O[C@@H]1CN(C)Cc1ccc(Oc2ccccc2)cc1	0.6	-34	-0.2	0
Cc1ccc(S(=O)(=O)N(C)C[C@H]2Oc3c(NC(=O)c4ccncc4)cccc3C(=O)N([C@@H](C)CO)C[C@@H]2C)cc1	0.017	22	1.9	1
CC(C)(C)c1ccc(/C(N)=N/O)cc1	0.22	-23	1.1	-9
Cc1ccc(S(=O)(=O)N(C)C[C@@H]2Oc3ccc(NS(=O)(=O)c4ccc(Cl)cc4)cc3C(=O)N([C@@H](C)CO)C[C@H]2C)cc1	0.097	53	-2.0	3
N#CCc1ccc(NC(=O)COc2ccc([N+](=O)[O-])cc2)cc1	/	/	1.2	18
c1ccc(COc2ccc(NCCc3ccncc3)cc2)cc1	0.018	60	0.9	31
COc1ccc(NC(=O)C(C)NS(=O)(=O)c2ccc(F)cc2)cc1Cl (stereo not drawn)	/	/	2.3	-3
CN(C)CCCNc1ncnc(N)c1[N+](=O)[O-]	/	/	1.0	-13
C[C@@H]1CN([C@@H](C)CO)C(=O)c2cc(NC(=O)Cc3ccccc3)ccc2O[C@H]1CN(C)C(=O)NC1CCCCC1	0.13	-33	/	-11
Cc1ccc(C)c(OC(=O)CS(=O)c2ccccc2[N+](=O)[O-])c1 (stereo not drawn)	/	/	-2.4	23
O=C(CSc1nnc(-c2cccnc2)n1-c1ccccc1)NCc1ccccc1	0.46	38	-1.6	-20
Cc1sc2ncnc(SCC(=O)c3cc(Cl)sc3Cl)c2c1C	/	/	1.0	-3
O=C(CN1CCCCC1)Nc1sc2c(c1C(=O)Nc1ccc(Br)cc1)CCC2	/	/	-2.3	39
COC(=O)Nc1nnc(CC(=O)Nc2ccccc2C)s1	/	/	0.5	-9
COc1ccc(NC(=O)Nc2ccc3c(c2)C(=O)N([C@H](C)CO)C[C@@H](C)[C@@H](CN(C)S(=O)(=O)c2ccccc2)O3)cc1	-0.63	10	2.0	11
O=C(Nc1sc2c(c1C(=O)NCc1ccco1)CCCC2)c1ccc([N+](=O)[O-])cc1	/	/	0.8	12
C[C@H]1CN([C@@H](C)CO)C(=O)c2cccc(NS(=O)(=O)c3ccc(F)cc3)c2O[C@H]1CN(C)Cc1ccccc1	0.021	7	0.5	0
COc1ccc(NC(=O)N(C)C[C@H]2Oc3ccc(NC(=O)Nc4ccccc4)cc3C(=O)N([C@H](C)CO)C[C@H]2C)cc1	-0.094	-1	/	-10
C[C@@H]1CN([C@@H](C)CO)C(=O)c2cccc(NC(=O)C3CCCCC3)c2O[C@H]1CN(C)C(=O)Nc1ccc2c(c1)OCO2	-0.18	-49	/	4
Cc1ccc(S(=O)(=O)Nc2cccc3c2O[C@H](CN(C)CC2CC2)[C@@H](C)CN([C@@H](C)CO)C3=O)cc1	-0.37	-9	2.9	-3
C[C@@H]1CN([C@H](C)CO)C(=O)c2cc(NS(=O)(=O)c3ccc(F)cc3)ccc2O[C@@H]1CN(C)CC1CC1	0.26	-12	1.0	-3
Cc1cc(OCC(=O)NCc2ccco2)cc(C)c1Br	/	/	-1.1	-30
C[C@@H]1CCCCO[C@H](CN(C)Cc2ccc3c(c2)OCO3)[C@@H](C)CN([C@H](C)CO)C(=O)c2cc(NC(=O)CCC(F)(F)F)ccc2O1	0.38	-6	-0.4	-2
C=CC[n+]1ccccc1/C=N/O	-0.054	/	1.0	6
C[C@@H]1O[C@@H](O[C@H]2[C@@H]3C=CO[C@@H](O[C@@H]4O[C@H](CO)[C@@H](O)[C@H](O)[C@H]4O)[C@@H]3[C@@]3(CO)O[C@@H]23)[C@H](O)[C@H](OC(=O)/C=C/c2ccc(O)cc2)[C@H]1O	0.37	?	/	/
Carrying on:
SMILES	YB-1 expr inh	Shh pathway inh	PD-1 reversal	MITF inh
COc1ccc(S(=O)(=O)N(C)C[C@H]2Oc3ccc(NC(=O)Nc4ccccc4)cc3C(=O)N([C@H](C)CO)C[C@H]2C)cc1	-0.39	-7	1.4	-9
CC(C)(Oc1ccc(C2CC2(Cl)Cl)cc1)C(=O)O (stereo not drawn)	0.022	-14	/	-15
COc1ccc(S(=O)(=O)N(C)C[C@@H]2OCCCC[C@@H](C)Oc3ccc(NC(=O)Nc4ccccc4)cc3C(=O)N([C@H](C)CO)C[C@@H]2C)cc1	-0.0064	-36	0.7	3
O=C(NC1CCCCC1)NC12CC3CC(CC(C3)C1)C2	-0.26	/	0.1	-19
C[C@H]1CN([C@@H](C)CO)C(=O)c2cccc(NC(=O)c3cnccn3)c2O[C@@H]1CN(C)S(C)(=O)=O	0.17	-32	1.9	-7
COc1ccc([N+](=O)[O-])cc1NC(=O)CN(c1ccccc1Br)S(C)(=O)=O	/	/	1.0	-14
C[C@@H]1O[C@@H](O[C@@H]2[C@@H](O)[C@H](OCCc3ccc(O)c(O)c3)O[C@H](CO[C@@H]3OC[C@](O)(CO)[C@H]3O)[C@H]2OC(=O)/C=C/c2ccc(O)c(O)c2)[C@H](O[C@@H]2OC[C@H](O)[C@H](O)[C@H]2O)[C@H](O)[C@H]1O	0.36	-22	1.3	-7
COc1ccc(NC(=O)Nc2ccc3c(c2)CC(=O)N([C@H](C)CO)C[C@H](C)[C@H](CN(C)CC2CCCCC2)O3)cc1	-0.38	/	/	0
C[C@@H]1CCCCO[C@@H](CN(C)C(=O)Nc2ccc3c(c2)OCO3)[C@@H](C)CN([C@H](C)CO)C(=O)c2cc(NS(=O)(=O)c3cn(C)cn3)ccc2O1	-0.23	-39	/	-8
Cc1ccc(S(=O)(=O)N(C)CC(=O)Nc2ccc(Nc3ccccc3)cc2)cc1	/	/	-3.3	18
c1ccc2[nH]c(-c3cscn3)nc2c1	0.57	-2	6.3	-29
C[C@H](CO)N1C[C@H](C)[C@@H](CN(C)S(=O)(=O)c2ccccc2)Oc2ccc(NC(=O)CCCN(C)C)cc2C1=O	-0.17	-16	0.4	3
COc1ccc(-n2nc3cc(C)c(NC(=O)COc4ccccc4)cc3n2)cc1	/	/	2.3	0

Only part of the results is shown. The share of hits here may be higher or lower than overall.
